Screening data (PubChem BioAssay)
VDR inh: vitamin D3 receptor (human) inhibition; P11473; VDR-SRC2-3 peptide fluorescence polarization, 2 h; Potency, µM, for inactives: max response, negative = inhibition, actives largely listed as inhibitors; 0.93% of 400,000 active; AID 504847; active means well fitted inhibition curve with a large enough effect; inconclusive means small, poorly fitted or top-dose-only effect, or another doubt; inactive means no such curve, though single readings can be large or run the other way; further: series mostly up to about 120 µM
Target sequence (P11473 whole entry, looked up): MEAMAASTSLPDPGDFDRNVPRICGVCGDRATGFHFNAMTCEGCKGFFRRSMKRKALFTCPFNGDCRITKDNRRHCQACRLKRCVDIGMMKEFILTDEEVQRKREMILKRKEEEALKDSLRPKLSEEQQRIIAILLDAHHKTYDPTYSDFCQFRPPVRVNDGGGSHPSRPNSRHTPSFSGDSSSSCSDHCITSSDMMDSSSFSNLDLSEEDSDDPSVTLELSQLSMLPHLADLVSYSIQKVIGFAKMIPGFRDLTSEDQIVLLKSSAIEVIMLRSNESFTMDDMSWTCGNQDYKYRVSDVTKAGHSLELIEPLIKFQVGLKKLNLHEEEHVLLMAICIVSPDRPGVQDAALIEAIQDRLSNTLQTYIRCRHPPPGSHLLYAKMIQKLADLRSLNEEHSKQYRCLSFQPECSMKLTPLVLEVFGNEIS
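VDR–SRC2-3 interaction, FP format. Cmpds 23 nl via pintool, brief spin, 2 h ambient incubation.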
An asterisk follows results filed as active; & = joins results of further samples. On the % scale 0 is the no-effect control and ±100 the full control effect; potency means the concentration at half of the fitted maximal effect.

`Oc1ccccc1-c1nc(/C=C/c2ccccc2)nn1-c1ccccc1` gave VDR inh -2%&-19%.
For COc1ccccc1C(=O)NCCC(=O)N1CCN(C(C)=O)CC1 the results were VDR inh -8%.
Cc1ccc(Cl)cc1N1CCN(C(=O)CCC(=O)Nc2ccc3nc(N4CCC(C)CC4)cc(C)c3c2)CC1 was read as VDR inh 2%.
Cc1ccc(-c2nc3ccccc3c(=O)n2NC(=S)N(C)C)cc1 was read as VDR inh -22%.
CCCCNC(=O)CSc1nc2ccsc2c(=O)n1C1CCN(C(=O)OCC)CC1 was read as VDR inh -6%.
For COc1ccc(OCC(=O)NC(Cc2c[nH]c3ccccc23)C(=O)O)cc1 (centres undefined) the results were VDR inh -7%.
For CC(NC(=S)NCCc1ccccc1)C(c1cccs1)N1CCN(Cc2ccccc2)CC1 (centres undefined) the results were VDR inh -22%.
Screening O=C(/C(=C/O)N=Nc1ccccc1)c1ccncc1 returned VDR inh 7%.
O=C(c1ccc([N+](=O)[O-])cc1)N1CCSC1c1ccccc1 (centres undefined) was read as VDR inh 1%.
For CCOC(=O)Cc1csc(NC(=O)/C=C/c2ccc(OC)cc2)n1 the results were VDR inh -10%.
`O=C(CCCC(=O)OCC(=O)c1cccs1)Nc1ccc(Oc2ccccc2)cc1` gave VDR inh -9%.
`COc1ccc(CCNC(=O)c2cccc(S(=O)(=O)N3CCCCCC3)c2)cc1` gave VDR inh -5%.
Screening C=CCn1c(=S)sc2c(=O)[nH]cnc21 returned VDR inh -26%.
CCn1c(C)c(C(C)=O)c(N2CCCCC2)nc1=S was read as VDR inh -6%.
`CC(=O)Oc1ccc(C(=O)Nc2cccc(C(=O)c3ccc(C)c(C)c3)c2)cc1` gave VDR inh 4%.

The last 3 records of the section before are carried over, then new ones follow.
Screening C=CCn1c(=S)sc2c(=O)[nH]cnc21 returned VDR inh -26%.
CCn1c(C)c(C(C)=O)c(N2CCCCC2)nc1=S was read as VDR inh -6%.
`CC(=O)Oc1ccc(C(=O)Nc2cccc(C(=O)c3ccc(C)c(C)c3)c2)cc1` gave VDR inh 4%.
`CCOc1ccc(C(C(=O)NC2CCCCC2)N(C(=O)Cc2cccs2)c2ccc(-n3cnnn3)c(OC)c2)cc1` (centres undefined) gave VDR inh -11%.
CCN(C(=O)C1CCCN(c2ncnc3onc(-c4ccc(F)cc4)c23)C1)c1ccccc1 (centres undefined) was read as VDR inh 9%.
For C/C(=N\NC(=O)Cc1ccc(Cl)cc1)c1cccnc1 the results were VDR inh -15%.
CN(C)C(=O)CN(C)S(=O)(=O)c1ccc(Cl)cc1 was read as VDR inh -7%.
`CCc1ccc(NC(=O)C(CC)c2ccccc2)cc1` (centres undefined) gave VDR inh 6%.
`CCCCNC(=O)[C@@H]1CC=C[C@@H]2CCN(C3CC3)C(=O)[C@@H]21` gave VDR inh -5%.
`Cc1c(C(=O)N2CCOCC2)c(S(=O)(=O)Nc2cccc(C#N)c2)c(C)n1C` gave VDR inh -21%.
Screening Cc1cc(C)c(S(=O)(=O)N2CCCC2CNC(=O)c2ccc3c(c2)OCO3)c(C)c1 (centres undefined) returned VDR inh -11%.
For CCN(CCO)C(=O)C12CCC(C)(C(=O)C1)C2(C)C (centres undefined) the results were VDR inh -3%.
For C[C@H](NC(=O)c1nc[nH]c1C(=O)NCc1ccc(CNC(=O)OC(C)(C)C)cc1)c1ccccc1 the results were VDR inh inconclusive.
Screening Cc1noc(C)c1C(=O)Nc1cccc(S(=O)(=O)N2CCCCC2)c1 returned VDR inh 2%.
COc1ccccc1NC(=O)CC1COc2ccccc2O1 (centres undefined) was read as VDR inh 2%.
For Cn1ccnc1SCCC#N the results were VDR inh 2%.
CCC(=O)N1CCc2cc(S(=O)(=O)NC(C(=O)NCc3ccccc3)C(C)C)ccc21 (centres undefined) was read as VDR inh 6%.
`NNC(=O)c1csc(COc2cc(Cl)cc(Cl)c2)n1` gave VDR inh -14%.
Cc1cccc(OCC(=O)NCC(=O)N/N=C/c2cccnc2)c1 was read as VDR inh 11%.
For CN(C)c1ccc(/C(=N\O)C(F)(F)F)cc1 the results were VDR inh -12%.
`CCC1(CC)C(=O)C2=C3C1[C@H](C(=O)OC)CC(C(=O)OC)C[C@H]3n1c(=O)n(-c3ccccc3)c(=O)n1[C@H]2C` (some centres undefined) gave VDR inh -15%&-4%.
`COC(=O)[C@H](CCSC)NC(=O)Nc1cccc(C)c1C` gave VDR inh 17%.
O=C(O)c1cnc(N2CCOCC2)nc1 was read as VDR inh -2%.
For NCC(O)COCCC12CC3CC(CC(C3)C1)C2 (centres undefined) the results were VDR inh -8%.
For CC(C)CN(C(=O)CC1CCCC1)c1c(N)n(Cc2ccccc2)c(=O)[nH]c1=O the results were VDR inh -7%.
For CCOc1ccc(-n2nc(CO)c(C(=O)NCC(C)O)n2)cc1 (centres undefined) the results were VDR inh 4%.
Screening CNC(=O)c1ccc(Nc2nnc(-c3ccc(C)c(S(N)(=O)=O)c3)c3ccccc23)cc1 returned VDR inh 13%.
Screening O=C(COC(=O)CCc1nc2ccccc2c(=O)[nH]1)Nc1ccc2c(c1)OCO2 returned VDR inh 1%.
CC(=O)c1sc(NC(=O)c2oc3ccc(F)cc3c2C)nc1C was read as VDR inh 22%.
For Cc1ccc2nc(COc3ccccc3NC(=O)c3ccccc3C)cc(=O)n2c1 the results were VDR inh 12%.
Screening COc1ccc(C(=O)COc2ccc(F)cc2)c(O)c1C returned VDR inh -3%.
For Cc1ccc(C)c(N2CCN(S(=O)(=O)c3ccc(-c4cc(C(F)(F)F)on4)s3)CC2)c1 the results were VDR inh 4%.
Screening Cc1nn(-c2ccccc2)c(N)c1N=Nc1cccnc1 returned VDR inh 0%.
Screening O=c1[nH]c(CN2CCOCC2)nc2ccccc12 returned VDR inh -2%.
Screening COc1cc(NC(=O)c2cccnc2Sc2ccc(Cl)cc2)cc(OC)c1OC returned VDR inh -4%.
CC(=O)Nc1nc(C)nc(C)c1C(C)=O was read as VDR inh -17%.
Screening Cc1cc(C)nc(NC(=O)Cc2ccc(Br)cc2)n1 returned VDR inh 7%.
For NC(=O)NCCCC(NC(=O)c1ccc(C#CC2(O)CCCCC2)cc1)C(=O)O (centres undefined) the results were VDR inh 25%.
`NC(=O)c1ccsc1NC(=O)COC(=O)/C=C/c1ccccc1[N+](=O)[O-]` gave VDR inh -11%.
For Cc1ccccc1-c1ccc(=O)n(CC(=O)Nc2ccc(N3CCOCC3)cc2)n1 the results were VDR inh -15%.
`COc1ccc(N2CCN(Cc3nc4c(c(=O)[nH]c(=O)n4C)n3Cc3ccccc3C)CC2)cc1` gave VDR inh -20%.
For COC(=O)c1ccc(N)cc1O the results were VDR inh 3%.
Cc1ccc2nc(C(=O)N3CCCC(Nc4ccc(F)cc4)C3)cn2c1 (centres undefined) was read as VDR inh -9%.
Screening CCCCCN(C(=O)NC(=O)Nn1cnnc1)S(C)(=O)=O returned VDR inh -2%.
COc1ccc(C)cc1NC(=O)C1CC(=O)N(CCc2ccccc2)C1 (centres undefined) was read as VDR inh 8%.
`N#Cc1c(=O)c2nc(NCc3ccccc3)ncc2n2ccccc12` gave VDR inh 2%.
Screening O=C(CSc1nnc(-c2ccncc2)o1)Nc1ccc(F)c(F)c1 returned VDR inh 0%.
Screening Cc1ccc(N(CC(=O)NCC2CCCO2)S(=O)(=O)c2ccccc2)c(C)c1 (centres undefined) returned VDR inh -3%.

Sorted by length of the SMILES (low to high): some entries from above.
CC(=O)Nc1nc(C)nc(C)c1C(C)=O was read as VDR inh -17%.
`NC(=O)c1ccsc1NC(=O)COC(=O)/C=C/c1ccccc1[N+](=O)[O-]` gave VDR inh -11%.
`COc1ccc(N2CCN(Cc3nc4c(c(=O)[nH]c(=O)n4C)n3Cc3ccccc3C)CC2)cc1` gave VDR inh -20%.

Gathered by group: the compounds so far with a cyano group
`Cc1c(C(=O)N2CCOCC2)c(S(=O)(=O)Nc2cccc(C#N)c2)c(C)n1C` gave VDR inh -21%.
For Cn1ccnc1SCCC#N the results were VDR inh 2%.
`N#Cc1c(=O)c2nc(NCc3ccccc3)ncc2n2ccccc12` gave VDR inh 2%.

The results go on.
Screening COCCOn1c(SCCOC)nc2ccccc2c1=O returned VDR inh -2%.
For O=C(Cn1cnc2scc(-c3ccccc3)c2c1=O)NCc1ccco1 the results were VDR inh -1%.
For NS(=O)(=O)c1ccc(NC(=O)c2ccc(F)cc2F)c(NC(=O)c2ccc(F)cc2F)c1 the results were VDR inh 10%.
`O=C(CNC(=O)c1ccccc1Cl)Nc1ccc(F)cc1` gave VDR inh -10%.
`Cc1cccc2c(=O)cc(CSc3ccccc3NC(=O)C(C)(C)C)[nH]c12` gave VDR inh 11%.
COc1ccc(-c2nc(C#N)c(N3CCOCC3)o2)cc1OC was read as VDR inh 7%.
Cc1nn(-c2ccccc2)c(C)c1CCC(=O)O was read as VDR inh -7%.
For COc1ccc(N2CCN(CCCNC(=O)Cn3c(=O)c4cccn4c4cccnc43)CC2)cc1 the results were VDR inh 2%.
`COC(=O)CN(c1cc(Cl)ccc1OC)S(=O)(=O)c1ccc(C)cc1` gave VDR inh 1%.
For CCCc1cc(=O)n2c([nH]c3ccccc32)c1C#N the results were VDR inh 7%.
For CCCCOc1ccc(/C=N/Nc2cc(N3CCOCC3)nc(C)n2)cc1 the results were VDR inh -18%.
Screening Cc1ccc(CSc2nnc(-c3ccc(NS(=O)(=O)c4ccccc4)cc3)o2)cc1 returned VDR inh -21%.
`O=C(NC1CCN(Cc2ccccc2)CC1)c1ccc2c(c1)[nH]c(=O)n2Cc1ccc(F)cc1` gave VDR inh -15%.
For O=C(NNC(=O)C1CCN(c2ncccn2)CC1)c1ccncc1 the results were VDR inh -8%.
`CC(=O)N[C@H]1C[C@@H]1c1ccccc1` gave VDR inh -1%.
CCOC(=O)Nc1csnn1 was read as VDR inh 13%.
Cc1cnc(C(=O)OCC(=O)Nc2ccccc2[N+](=O)[O-])cn1 was read as VDR inh 5%.
`CCN(CC)S(=O)(=O)c1ccc2c(c1)c(=O)c(C(=O)NCc1ccc(Cl)cc1)cn2C` gave VDR inh -23%.
Cn1c(SCC(=O)NCc2cccs2)nnc1-c1ccc(O)cc1 was read as VDR inh inconclusive.
COc1cc(/C=N/NC(=O)c2cccc([N+](=O)[O-])c2)ccc1OC(=O)c1ccco1 was read as VDR inh 2%.
CN(Cc1ccccc1)C(=O)N1CCOCC1 was read as VDR inh 18%.
Cc1cccc(C(=O)N2CCN(c3ccc(C(F)(F)F)cn3)CC2)c1C was read as VDR inh -3%.
`CCOC(=O)c1ccc(NC(=O)CCc2nc(-c3ccccc3Cl)no2)cc1` gave VDR inh 8%.
Screening c1ccc(Cc2nnc(-c3ccccc3)o2)cc1 returned VDR inh -5%.
Screening CC(C)Oc1ccc(Cc2c(O)nc(NCCCN(C)C)[nH]c2=O)cc1 returned VDR inh 6%.
O=C(OCc1ccc(Br)cc1)c1cnc(Cl)c(Cl)c1 was read as VDR inh 9%.
`CCCCCCCC(=O)Nc1ccc(S(=O)(=O)Nc2nccs2)cc1` gave VDR inh -15%.
For O=C(Nc1ccccc1)c1ccc(-c2ccc(F)cc2)s1 the results were VDR inh 9%.
Cc1ccc(CNC(=O)C(C)n2c(=O)cc(-c3ccccc3)c3c(C)nn(C)c32)cc1 (centres undefined) was read as VDR inh 5%.
Screening O=C(CCNc1cc(Cl)cc(Cl)c1)c1cccs1 returned VDR inh 1%.
For CCCCC(=O)NC1(C(F)(F)F)NC(=O)N(C)C1=O (centres undefined) the results were VDR inh -12%.
Screening COc1ccc(N2CC(=O)N(c3ccccc3)C2=S)cc1 returned VDR inh -3%.
`CC(=O)Nc1sc(NC(=O)c2ccccc2)nc1-c1cccs1` gave VDR inh -10%.
Screening CCCc1cc(=O)[nH]c(SC(C)C(=O)Nc2ccc3c(c2)OCCO3)n1 (centres undefined) returned VDR inh 1%.
COc1ccc(N2CCCC2)c(NC(=O)COc2ccccc2Cl)c1 was read as VDR inh -14%.
For Cc1sc2nc(C)n(/N=C/c3ccccc3O)c(=O)c2c1C the results were VDR inh 1%.
For Cc1ccccc1C(=O)Nc1cccc(C(=O)OCc2cc(=O)n3ccsc3n2)c1 the results were VDR inh 6%.
Screening CN(C)CC(O)COC(c1ccccc1)c1ccccc1 (centres undefined) returned VDR inh 5%.
Screening CC1CCC(C(=O)NC(C(=O)NCCc2ccc(S(N)(=O)=O)cc2)C(C)C)CC1 (centres undefined) returned VDR inh 6%.
Screening O=[N+]([O-])c1ccc(C(O)CNC(=S)Nc2ccccc2)cc1 (centres undefined) returned VDR inh -20%.
For Cc1ccc(NC(=O)CCSCCC(=O)Nc2ccc(C)c(C)c2)cc1C the results were VDR inh -2%.
CCN(CC)CCOc1ccc2c(c1)C(=NO)c1cc(OCCN(CC)CC)ccc1-2 was read as VDR inh -16%.
`CCN1C=C(Cc2cccs2)C2=C(C1)C(c1cccs1)C(C#N)=C(N)O2` (centres undefined) gave VDR inh 16%.
For CCOc1ccccc1NC(=O)CN(C)S(=O)(=O)c1ccc(C(=O)N2CCOCC2)s1 the results were VDR inh 8%.
S=c1sc(SCCOc2ccccc2)nn1-c1ccccc1 was read as VDR inh -7%.
Screening CCNc1nc(NCC)nc(N/N=C/c2cc(OC)c(OC)c(OC)c2)n1 returned VDR inh inconclusive.
For CCC(=O)NCCc1nc2cc(NC(=O)COc3ccccc3)ccc2n1C the results were VDR inh 10%.
For CCOc1ccc(NC(=O)N2CCC(n3c(C)nc4cccnc43)CC2)cc1 the results were VDR inh 17%.

Taken from above for reference:
COc1ccc(N2CCCC2)c(NC(=O)COc2ccccc2Cl)c1 was read as VDR inh -14%.
For Cc1sc2nc(C)n(/N=C/c3ccccc3O)c(=O)c2c1C the results were VDR inh 1%.
For Cc1ccccc1C(=O)Nc1cccc(C(=O)OCc2cc(=O)n3ccsc3n2)c1 the results were VDR inh 6%.
Screening CN(C)CC(O)COC(c1ccccc1)c1ccccc1 (centres undefined) returned VDR inh 5%.
Screening CC1CCC(C(=O)NC(C(=O)NCCc2ccc(S(N)(=O)=O)cc2)C(C)C)CC1 (centres undefined) returned VDR inh 6%.

Not all compounds are listed; rates above refer to the full screens.
